# Compound activity (PubChem)
# FGF22 binding: binders of human FGF22 protein, primary screen, FGF22 synaptogenesis inhibitor project, biophysical, thermal shift, single point. Fibroblast growth factor 22 (Homo sapiens), Q9HCT0. recombinant FGF22 thermal shift, SYPRO orange fluorescence; percent of sucrose octasulfate shift, DMSO zero. calls only at 9.99 µM. 340,000 compounds, 1.5% hits;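 active = melting point raised past a set limit in the mean and every replicate; three in four hits are not shown here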
# Target sequence (Q9HCT0 whole entry, looked up): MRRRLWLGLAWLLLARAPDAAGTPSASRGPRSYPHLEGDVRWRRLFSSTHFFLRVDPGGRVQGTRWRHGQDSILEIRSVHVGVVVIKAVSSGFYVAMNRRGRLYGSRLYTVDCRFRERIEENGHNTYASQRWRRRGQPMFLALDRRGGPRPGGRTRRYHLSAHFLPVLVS
# rRNA inh HTS: reduced GFP signal of wild-type E. coli, primary screen, bacterial rRNA inhibitor project, GFP/RFP fluorescence, OD600, single point; 350,000 compounds, 1.6% hits; E. coli WT GFP vs humanized-ribosome RFP mutants, 24 h; stronger effect = lower value; DMSO median 0, no signal -100; AID 720706, 2013; GFP signal change (wild-type ribosome), % (test concentration not listed);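 active = significant combined selectivity score with lowered wild-type GFP, culture density cut under 30%, mutant RFP and density less affected; inactive = any of these conditions unmet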; note: one replicate is shown; some compounds called inactive have numbers as strong as hits
# HNF4A DNA FP: change in binding of human HNF4A to DNA, primary screen, biochemical, fluorescence polarization, FITC-DNA; 1 h; activity change, % at 10 µM; 360,000 compounds, 0.3% hits; AID 1224865, 2016; in the data active = activity change above about 30%, passing the limit was not always enough;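 note: controls were the assay level and a saturating level of protein; the project sought stronger binding though the title names inhibitors; some compounds called inactive have numbers as strong as hits; positive values seem to mean higher polarization but the record does not say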
# Vif A3G: inhibitors of Vif binding to APOBEC3G peptide, primary screen, biochemical, TR-FRET, GST-Vif 1-94, biotin-A3G peptide, dose response retest (AID 1117319). Virion infectivity factor (Human immunodeficiency virus type 1 group M subtype B (isolate …. TR-FRET GST-Vif / biotin-A3G peptide binding; higher % means a stronger effect; test concentration not given here; strong numbers were not always called active. one-dose inhibition, %; IC50 in µM for titrated hits. 260,000 compounds, 0.57% hits;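 active = above the screen mean plus three standard deviations and confirmed in dose response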;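 note: Vif residues 1-94 fused to GST binding biotinylated APOBEC3G peptide 110-148; 0% = full assay without inhibitor and 100% = GST in place of GST-Vif; retest series ran down from 100 µM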
# ALR inh: inhibitors of human ALR sulfhydryl oxidase, primary screen, biochemical, H2O2 detection, HRP-luminol luminescence, single point; inhibition, % (test concentration not listed); purified ALR, DTT oxidation; 290,000 compounds, 3.8% hits; FAD-linked sulfhydryl oxidase ALR (Homo sapiens), P55789;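 active = mean and each replicate at 75% or more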;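 note: stock transfer was 7.5 nL into about 7.5 µL; 0% = neutral wells and 100% = wells with inactivated enzyme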
# Target sequence (P55789 whole entry, looked up): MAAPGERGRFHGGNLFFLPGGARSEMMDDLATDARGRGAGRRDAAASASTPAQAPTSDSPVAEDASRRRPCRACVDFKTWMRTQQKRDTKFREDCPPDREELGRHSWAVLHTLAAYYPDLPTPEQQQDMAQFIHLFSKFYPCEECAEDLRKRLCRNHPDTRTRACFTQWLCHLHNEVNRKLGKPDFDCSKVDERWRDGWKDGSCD
# MLL AF4-AF9 inh: inhibitors of AF4 peptide binding to AF9, primary screen, biochemical, AlphaScreen, biotin-AF4 peptide, FLAG-AF9, single point; Protein AF-9 (Homo sapiens), P42568; inhibition, % at 10 µM; 350,000 compounds, 0.47% hits; AID 651704, 2012;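 active = every replicate reaching a set inhibition limit, whatever the replicate mean, cut at about 25% in these data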;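 note: 0% = plate neutral control median and 100% = total signal loss; the record names both 10 and 1 µM as test concentration; the first replicate is given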
# Target sequence (P42568 whole entry, looked up): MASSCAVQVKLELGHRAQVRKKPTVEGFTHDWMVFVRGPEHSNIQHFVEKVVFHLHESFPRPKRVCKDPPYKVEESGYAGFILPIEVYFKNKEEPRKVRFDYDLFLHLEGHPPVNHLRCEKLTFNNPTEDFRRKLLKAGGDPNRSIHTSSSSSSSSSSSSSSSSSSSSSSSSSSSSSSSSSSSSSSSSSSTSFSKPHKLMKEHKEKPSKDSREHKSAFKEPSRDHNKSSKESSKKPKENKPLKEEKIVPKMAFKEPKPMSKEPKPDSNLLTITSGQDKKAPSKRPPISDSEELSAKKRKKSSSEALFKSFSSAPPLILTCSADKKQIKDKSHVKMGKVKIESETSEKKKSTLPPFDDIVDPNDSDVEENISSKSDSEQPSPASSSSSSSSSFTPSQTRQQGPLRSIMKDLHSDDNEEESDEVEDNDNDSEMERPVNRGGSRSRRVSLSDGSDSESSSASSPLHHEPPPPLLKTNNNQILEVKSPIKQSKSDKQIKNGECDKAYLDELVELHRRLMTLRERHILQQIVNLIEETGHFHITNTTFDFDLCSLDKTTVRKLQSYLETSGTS
# E coli growth: E. coli growth inhibition, primary screen, OD600; Escherichia coli growth, 23 h; stronger effect = lower value; OD600 absorbance (concentration not given with the values); 330,000 compounds, 0.21% hits; AID 1053175, 2014;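 active = OD600 absorbance below the run mean of sample wells minus 3.6 SD, in any replicate, cut at about 0.56 in these data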;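 note: stock transfer was 300 nL into about 60 µL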
# rRNA inh HTS OD600: recorded beside rRNA inh HTS, whose call it bears; OD600 change, %; measured here: OD600 growth;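 optical density of the mix in the first replicate; 0 = DMSO median and -100 = no signal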
# rRNA inh HTS RFP: also measured in rRNA inh HTS; calls as there; RFP signal change, %; measured here: RFP humanized mutant strains;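 first replicate; 0 = DMSO median and -100 = no signal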
# * marks the source's active call; other numbers are inactive results; i = inactive; / = no result given; & = joins results of further samples.
no.	SMILES	FGF22 binding	rRNA inh HTS	rRNA inh HTS OD600	rRNA inh HTS RFP	HNF4A DNA FP	Vif A3G	ALR inh	MLL AF4-AF9 inh	E coli growth
1	COc1ccc(N/C=C/C(=O)C(F)(F)F)cc1	/	/	/	/	-0.8	-9%	-10	/	0.71
2	CC(C)(C)CC(=O)NC(=S)NCCc1ccccc1	i	-49	-70	-20	-0.3	-5%	1	8.7	0.71
3	O=C(NNC(=O)c1cccs1)c1ccccn1	i	-17	-29	-3.5	-0.4	6%	/	3.3	/
4	Cc1cc(NC(=O)CSCc2ccccc2)no1	i	5	9	3.6	1.1	1%	7	-0.6	0.71
5	COc1ccc(S(=O)(=O)Cc2ccc(C(=O)N3CCN(c4cccc(C)c4)C(C)C3)o2)cc1 (centres undefined)	i	-22	-28	-14	6.5	2%	94*	4.8	0.74
6	C[C@@H]1CN([C@@H](C)CO)C(=O)c2cc(NC(=O)CCCCCC(=O)Nc3ccccc3N)ccc2O[C@@H]1CN(C)C(=O)NC1CCCCC1	i	-4	-2	-3.1	/	/	/	-0.8	/
7	CCS(=O)(=O)N1CC2(CN(Cc3cccc(Cl)c3)[C@@H](CO)c3c2c2ccc(OC)cc2n3C)C1	i	-4	-15	-1.9	/	/	/	0.8	/
8	O=C(Nc1ccc(C2CC2(Cl)Cl)cc1)c1cccc([N+](=O)[O-])c1 (centres undefined)	i	-28*	-19*	-6.3*	-3.2	/	-4	1.4	0.57

# The list goes on (7 carried over from the part before).
no.	SMILES	FGF22 binding	rRNA inh HTS	rRNA inh HTS OD600	rRNA inh HTS RFP	HNF4A DNA FP	Vif A3G	ALR inh	MLL AF4-AF9 inh	E coli growth
2	CC(C)(C)CC(=O)NC(=S)NCCc1ccccc1	i	-49	-70	-20	-0.3	-5%	1	8.7	0.71
3	O=C(NNC(=O)c1cccs1)c1ccccn1	i	-17	-29	-3.5	-0.4	6%	/	3.3	/
4	Cc1cc(NC(=O)CSCc2ccccc2)no1	i	5	9	3.6	1.1	1%	7	-0.6	0.71
5	COc1ccc(S(=O)(=O)Cc2ccc(C(=O)N3CCN(c4cccc(C)c4)C(C)C3)o2)cc1 (centres undefined)	i	-22	-28	-14	6.5	2%	94*	4.8	0.74
6	C[C@@H]1CN([C@@H](C)CO)C(=O)c2cc(NC(=O)CCCCCC(=O)Nc3ccccc3N)ccc2O[C@@H]1CN(C)C(=O)NC1CCCCC1	i	-4	-2	-3.1	/	/	/	-0.8	/
7	CCS(=O)(=O)N1CC2(CN(Cc3cccc(Cl)c3)[C@@H](CO)c3c2c2ccc(OC)cc2n3C)C1	i	-4	-15	-1.9	/	/	/	0.8	/
8	O=C(Nc1ccc(C2CC2(Cl)Cl)cc1)c1cccc([N+](=O)[O-])c1 (centres undefined)	i	-28*	-19*	-6.3*	-3.2	/	-4	1.4	0.57
9	CC(C)C(=O)N1CCN(c2ccc(NC(=O)c3ccco3)cc2Cl)CC1	i	-6	-8	-0.5	0.3	/	0	0.2	0.71
10	O=C(NC[C@@H]1[C@@H](c2ccccc2)[C@@H](CO)N1CC1CCCC1)C1CC1	i	-1	2	-0.8	/	/	/	0.0	/
11	COc1ccc(OC)c(NC(=O)Nc2ccc3c(c2)OCO3)c1	i	0	0	-3.1	3.5	5%	-7	1.7	0.7
12	CCN(CC)C(=O)[C@H]1C[C@H](CC(=O)NCCc2ccccn2)C(=O)N2CCc3c([nH]c4ccc(Cl)cc34)[C@]12C	i	-10	-14	2.8	-4.8	/	/	-2.0	0.69
13	COc1cccc(CNC(=O)CSCc2cnn(-c3ccccc3)c2-n2cccc2)c1	/	/	/	/	0.4	7%&3%	-6	/	0.73
14	O=C(C[C@@H]1CC[C@@H]2[C@H](COC[C@H](O)CN2C(=O)C2CCCC2)O1)NCc1ccncc1	i	2	-1	-0.4	/	/	/	-8.1	/
15	COc1ccc(OCCC(=O)OCC(=O)Nc2ccc(S(=O)(=O)N3CCOCC3)cc2)cc1	i	17	11	1.0	-0.5	2%	/	0.0	0.71
16	O=C(NCCCN1CCCC1)c1[nH]c(C(F)(F)F)nc1-c1ccccc1	i	28	8	1.1	0.2	/	/	1.8	/

# Continued:
no.	SMILES	FGF22 binding	rRNA inh HTS	rRNA inh HTS OD600	rRNA inh HTS RFP	HNF4A DNA FP	Vif A3G	ALR inh	MLL AF4-AF9 inh	E coli growth
17	CN1C(C)(C)CC(O)(C(=O)O)CC1(C)C	i	4	6	-3.1	0.7	/	/	0.1	/
18	O=C(CNc1cc(S(=O)(=O)N2CCOCC2)ccc1NCC1CCCO1)Nc1cccc(F)c1 (centres undefined)	i	-13	-8	3.5	7.6	/	-14	2.6	0.71
19	O=C(CN(Cc1ccccc1)S(=O)(=O)c1ccc2c(c1)OCCO2)N/N=C/c1ccc(F)cc1	/	/	/	/	-3.6	13%	-15	/	/
20	C[C@H](CO)N1C[C@H](C)[C@@H](CN(C)S(=O)(=O)c2ccccc2)Oc2ccc(NS(=O)(=O)c3ccc(F)cc3)cc2C1=O	i	-3&-3	-8&-2	1.9&-1.2	5.0	/	-4	-1.9&2.7	0.74
21	O=C1c2cccnc2C(O)N1Cc1ccccc1 (centres undefined)	i	9	6	-4.0	-1.5	16%	-4	-0.9	0.67
22	Nn1c(SCc2ccccc2F)nnc1-c1cccnc1	i	18	6	1.7	-0.1	-12%	-1	-2.8	0.66
23	O=C(NCCCO)c1ccc2[nH]c3c(c2c1)CCCC3	/	/	/	/	1.5	2%	/	/	0.71
24	COc1cc2[nH]c(=O)n(CCC(=O)N3CCN(c4cccc(C)c4C)CC3)c(=O)c2cc1OC	/	/	/	/	0.4	23%	-6	/	0.7

# (listing goes on)
no.	SMILES	FGF22 binding	rRNA inh HTS	rRNA inh HTS OD600	rRNA inh HTS RFP	HNF4A DNA FP	Vif A3G	ALR inh	MLL AF4-AF9 inh	E coli growth
25	CCOc1ccccc1NC(=O)Cn1[nH]c(=O)c2ccccc2c1=O	/	/	/	/	-5.5	-16%	13	/	0.69
26	NC(=S)N=Nc1c(O)[nH]c2c(Br)cc(Br)cc12	i	-3	-5	18	3.6	/	-3	-0.8	0.66
27	COC(=O)c1cnn(-c2ccccc2)c1C(OC)OC	i	7	8	-2.4	4.9	/	-6	-0.6	0.65
28	CCOC(=O)C(C(=O)NCc1cccc(OC)c1)c1ncc(C(F)(F)F)cc1Cl (centres undefined)	/	/	/	/	0.7	-3%	-2	/	0.7
29	Cc1ccc(C(=O)Nc2ncc(C)s2)s1	i	-8	-17	0.1	3.1	/	-2	0.8	0.62
30	COCCNC(=O)C1(S(=O)(=O)c2ccccc2)CC=CC1	i	6	4	6.2	0.1	/	3	-0.2	0.68
31	Cc1c([N+](=O)[O-])cc(S(=O)(=O)Nc2ccc(-c3ccc(N4CCCC4)nn3)cc2)cc1[N+](=O)[O-]	/	8	7	-1.6	-7.7	1%	/	0.3	0.67
32	CSCCC1NC2(C(=O)Nc3c(Cl)cccc32)[C@@H]2C(=O)N(C3CCCC3)C(=O)[C@H]12 (some centres undefined)	/	6	10	3.6	-0.1	18%	7	/	0.67

# (further entries)
no.	SMILES	FGF22 binding	rRNA inh HTS	rRNA inh HTS OD600	rRNA inh HTS RFP	HNF4A DNA FP	Vif A3G	ALR inh	MLL AF4-AF9 inh	E coli growth
33	Cc1ccccc1NNC(N)=S	i	10	14	-2.4	-0.5	-13%	72	-0.7	0.71
34	CC(=O)c1cccc(-n2nnnc2SCC(=O)Nc2ccccc2N2CCCCC2)c1	/	/	/	/	0.3	28%	3	/	0.73
35	Cn1c(-c2sccc2OCc2ccc(Cl)cc2Cl)n[nH]c1=S	i	-43	-72	-11	-0.2	1%	65	-2.6	0.67
36	Cc1cc(C)nc(NC(=O)c2c(Cl)cccc2Cl)n1	/	15	14	1.1	1.0	/	-11	-2.5	0.7
37	O=C(C[C@H]1C[C@H]2c3cc(NC(=O)c4cccnc4)ccc3O[C@H]2[C@@H](CO)O1)NCc1cc(F)ccc1F	i	-1	-2	-2.7	/	/	/	3.1	/
38	CN(C(=O)CC1C(=O)NCCN1Cc1cccc(F)c1F)C1CC(C)(C)NC(C)(C)C1 (centres undefined)	i	8	11	1.7	-0.7	2%	0	0.0	0.69
39	Fc1cc(F)c2nc(N3CCCCC3)sc2c1	/	/	/	/	2.4	0%	-13	/	0.67
40	CN(C)CC(=O)N1[C@@H](C#N)[C@@H](c2ccc(-c3ccc(C(=O)N(C)C)cc3)cc2)[C@@H]1CO	i	2	0	1.2	/	/	/	-2.3	/

# Following part:
no.	SMILES	FGF22 binding	rRNA inh HTS	rRNA inh HTS OD600	rRNA inh HTS RFP	HNF4A DNA FP	Vif A3G	ALR inh	MLL AF4-AF9 inh	E coli growth
41	O=C(Nc1ccccc1Cl)c1ccc(C(=O)Nc2ccccc2Cl)cc1	i	8	19	-2.7	0.2	-11%	/	-1.5	/
42	CCOc1ccccc1NC(=O)c1c(NC(=O)CCC(=O)O)sc2c1CCCCC2	i	-19	-22	1.9	1.2	/	/	-25	0.72
43	COc1ccc(C2SC[C@@H](C(=O)O)N2C(C)=O)cc1 (some centres undefined)	/	/	/	/	-0.5	-5%	/	/	0.76
44	CN(CC(=O)N1CCc2ccccc2C1)c1ccccc1	i	5	2	-0.1	-2.9	4%	/	8.2	0.65
45	Cc1nc(SCCOc2ccccc2F)[nH]c(=O)c1Cc1ccccc1	i	4	5	3.6	3.2	/	2	0.7	0.68
46	OCc1cn(-c2ccc(Cl)cc2)nn1	i	12	11	1.4	0.9	-2%	-8	-1.8	0.66
47	O=C(/C=C/c1ccco1)NCC1(c2ccccc2)CCCC1	/	/	/	/	4.2	/	-6	/	0.72
48	CN1CCN(C2CN(Cc3cn(Cc4ccccc4)nn3)S(=O)(=O)C2)CC1 (centres undefined)	i	7	-5	-12	-0.7	/	/	0.0	/

# Additional results.
no.	SMILES	FGF22 binding	rRNA inh HTS	rRNA inh HTS OD600	rRNA inh HTS RFP	HNF4A DNA FP	Vif A3G	ALR inh	MLL AF4-AF9 inh	E coli growth
49	CCOC(=O)C(C(=O)OCC)c1cc(Br)c2noc3c2c1C(=O)c1ccccc1-3	/	/	/	/	-43	2.4µM*	/	/	0.69
50	COc1ccccc1C(=O)NC(=O)CSc1nncn1C	i	-3	-2	-1.3	2.4	-4%	-4	-1.7	0.67
51	CCOC(=O)CS(=O)(=O)c1ccc(C(F)(F)F)cn1	/	/	/	/	-2.2	12%	-1	/	0.8
52	COc1ccc(C(=O)c2oc3ccccc3c2NC(C)=O)cc1	/	/	/	/	-4.2	3%	/	/	0.69
53	CCC(C)c1ccccc1NC(=O)c1cccnc1 (centres undefined)	i	-9	-3	-4.7	-5.2	-4%	-9	-5.0	0.66
54	COc1cccc(-c2ccc3c(c2)O[C@H](CN(C)Cc2cccnc2)[C@@H](C)CN([C@@H](C)CO)S3(=O)=O)c1	i	-49	-42	-1.6	/	/	/	6.5	/
55	O=C(COC(=O)Cc1c[nH]c2ccccc12)Nc1c(Cl)cccc1C(F)(F)F	i	-6	-1	0.5	0.6	-1%	-2	-0.8	0.67
56	COc1ccc(NC(=O)c2ccc(COc3ccccc3)o2)c(OC)c1	i	-24	-35	-2.6	-3.0	/	-4	-0.6	0.65

# A portion of the library; count on the stated rates, not on these rows.
